# Compound activity from PubChem BioAssay.
# RecA splice inh – Mtb RecA intein splicing inhibitors, primary screen, biochemical, fluorescence, HTS | Protein RecA (Mycobacterium tuberculosis (strain ATCC 25618 / H37Rv)), P9WHJ3 | hit rate 0.75% among 290,000 | cell-free RecA intein splicing | inhibition, %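 (about 9 µM by stock and volumes)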; in the data active = inhibition above about 30%; inconclusive = no clear call, values can overlap the other calls;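 note: 0% = vehicle wells and 100% = reference inhibitor control wells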
# Target sequence (P9WHJ3 whole entry, looked up, canonical isoform): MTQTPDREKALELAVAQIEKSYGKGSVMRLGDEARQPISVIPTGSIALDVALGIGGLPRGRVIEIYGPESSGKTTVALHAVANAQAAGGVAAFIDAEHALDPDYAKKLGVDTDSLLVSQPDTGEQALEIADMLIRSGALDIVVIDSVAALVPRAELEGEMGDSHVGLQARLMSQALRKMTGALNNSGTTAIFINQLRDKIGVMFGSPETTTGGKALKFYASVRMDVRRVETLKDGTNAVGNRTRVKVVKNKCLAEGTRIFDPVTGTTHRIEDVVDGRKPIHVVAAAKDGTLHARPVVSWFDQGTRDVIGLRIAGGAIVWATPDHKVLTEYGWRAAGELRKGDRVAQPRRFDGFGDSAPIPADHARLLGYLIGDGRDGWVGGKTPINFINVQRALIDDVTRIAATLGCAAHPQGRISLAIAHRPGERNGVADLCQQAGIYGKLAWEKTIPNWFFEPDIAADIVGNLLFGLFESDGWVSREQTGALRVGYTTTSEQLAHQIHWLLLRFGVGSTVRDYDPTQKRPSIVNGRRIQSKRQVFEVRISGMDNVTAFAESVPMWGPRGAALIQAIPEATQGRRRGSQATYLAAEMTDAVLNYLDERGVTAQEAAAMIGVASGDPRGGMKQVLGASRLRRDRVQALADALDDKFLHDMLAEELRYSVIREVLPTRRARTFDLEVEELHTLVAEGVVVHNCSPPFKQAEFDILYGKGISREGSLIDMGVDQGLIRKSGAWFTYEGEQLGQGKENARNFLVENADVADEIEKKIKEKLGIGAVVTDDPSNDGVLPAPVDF
# Arbovirus anti – antivirals against arbovirus infection, primary screen, cell-based, full library, 10K replicate subset; arbovirus infection cell-based antiviral screen; hit rate 0.37% among 200,000; inhibition, % at 10 µM; AID 1251, 2008;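 active = inhibition from about 30%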;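 note: bluetongue infection of BSR cells; cell survival read as ATP light after 72 h; 0% = infected wells without compound and 100% = uninfected wells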
# Mtb betalactam – beta-lactam sensitization of Mtb H37Rv, H37Rv; M. tuberculosis H37Rv growth with meropenem, percent inhibition; hits of this screen are not shown here; inhibition, % at 25 µM; hit rate 0.27% among 330,000; AID 434955, 2010;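 active = about 74% or more and at least 40 points above the plate without the antibiotic, then above 30% in a dose series; inconclusive = first-round hits that could not be retested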;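 note: growth measured after seven days incubation then overnight dye step; 0% = bacteria only wells and 100% = bacteria with antibiotic; twin plates without the antibiotic show which effects depend on it; some results filed as inactive read as strong as hits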
# Mtb growth – M. tuberculosis H37Rv growth inhibitors, H37Rv strain (AID 1626); inhibition, % at 10 µM; hits with a dose series show IC50 in µM; M. tuberculosis H37Rv growth inhibition; higher % means a stronger effect; hit rate 0.95% among 220,000;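 active = confirmed in a dose series; inconclusive = inhibition above 80% but not taken into the dose series; inactive = below 80% or under 30% at every dose of the series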;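 note: bacteria incubated seven days before Alamar blue readout; 0% = bacteria only wells and 100% = bacteria with antibiotic wells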
# YopH PTP inh – YopH tyrosine phosphatase inhibitors, primary screen, biochemical, fluorescence Ex485/Em525; YopH tyrosine phosphatase [Yersinia enterocolitica]; inhibition, %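 (about 10 µM by stock and volumes)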; hit rate 0.16% among 140,000;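 active = inhibition of 50% or more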;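 note: controls were vehicle for no effect and minimum signal wells for full effect; inactives centre near -20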
# Arbovirus anti repeat – also measured in Arbovirus anti; calls as there; inhibition, %; measured here: 10K subset replicate screen; many hits read low in the repeat;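 first of two repeat runs on a subset; 0% = infected and 100% = uninfected wells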
# Starred values were filed as active, the others as inactive; ? = inconclusive; . = not tested or not shown. Only part of the results is shown. The share of hits here may be higher or lower than overall.
SMILES,RecA splice inh,Arbovirus anti,Mtb betalactam,Mtb growth,YopH PTP inh,others
CC(=O)NNC(=O)CSc1nnc(-c2ccccc2)c(-c2ccccc2)n1,8.3,.,-4,.,.,
CCOC(=O)CNC(=O)CSc1ccc2nnc(-c3ccc(F)cc3)n2n1,-0.4,-3,-13,-3%,.,
COc1ccc(CN2CCCC(C(=O)c3ccccc3SC)C2)cc1O (centres undefined),-2.3,5,3,-9%,.,
CC1CCN(C(=O)Cn2nc(C(F)(F)F)c3c2CCCC3)CC1,-0.8,0,10,-4%,-41,
COc1ccc(CC(=O)NNC(=O)CSc2ccc(C)cc2)cc1,-4.3,0,-5,3%,.,
CC1CN(c2ccc(Oc3ccccc3)cc2)c2nc3c(c(=O)[nH]c(=O)n3C)n2C1 (centres undefined),-0.9,14,.,10%,-1,
Cc1ccc(C)n1-n1cnc2scc(-c3cccs3)c2c1=O,5.3,-1,4,-6%,-7,
Cc1n[nH]c(C)c1CN(C)C(=O)c1cc(COc2ccc(F)c(F)c2)on1,2.7,.,?,.,.,
Cc1noc(C)c1S(=O)(=O)N1CCC(C(=O)NCCc2ccc(S(N)(=O)=O)cc2)CC1,-1.4,7,2,-2%,-18,
Cn1cc(C(=O)c2ccc(Cl)cc2Cl)cc1C(=O)N/N=C(\N)COc1cccc(C(F)(F)F)c1,7.9,-25,10,2%,-7,
CCOC(=O)c1cc2c(n(-c3ccc(C)cc3)c1=O)CCCC2=O,-2.5,4,0,0%,-30,Arbovirus anti repeat=2
COc1ccc(C(=O)Nc2cc(C(F)(F)F)ccc2-n2cnc3ccccc32)cc1,1.7,-5,-1,4%,-27,
COC(=O)c1cccc(NS(C)(=O)=O)c1C,0.8,4,-11,4%,10,
CC(=O)Nc1cccc(Oc2ncnc3scc(-c4ccc(C(C)C)cc4)c23)c1,3.2,-33,8,9%,-14,
CCN1CCN(C(=O)CN(C)S(=O)(=O)c2cc(C)ccc2OC)CC1,1.2,2,-10,-6%,.,
COc1ccc(-c2cc(C)no2)cc1S(=O)(=O)N1CCCN(Cc2ccc(F)cc2)C1,1.3,.,-8,.,.,
Cc1cccc(C)c1OCCCCn1cnc2ccccc2c1=O,-5.1,-5,-8,-7%,-22,
CCOC(=O)c1cc(-c2nnc(-c3ccc(Cl)cc3)o2)c(C)nc1C,-1.0,-3,1,-1%,-54,Arbovirus anti repeat=-3
COc1cc(C(=O)Nc2cccc(-c3nc4ncccc4o3)c2C)cc(OC)c1OC,2.8,-2,-8,-1%,-27,
COc1nc(N(C)C)nc(N(C)c2cc(Cl)cc(Cl)c2)n1,10,.,47,.,.,

# Brought forward from above: 5 entries, then new ones.
SMILES,RecA splice inh,Arbovirus anti,Mtb betalactam,Mtb growth,YopH PTP inh,others
COc1ccc(-c2cc(C)no2)cc1S(=O)(=O)N1CCCN(Cc2ccc(F)cc2)C1,1.3,.,-8,.,.,
Cc1cccc(C)c1OCCCCn1cnc2ccccc2c1=O,-5.1,-5,-8,-7%,-22,
CCOC(=O)c1cc(-c2nnc(-c3ccc(Cl)cc3)o2)c(C)nc1C,-1.0,-3,1,-1%,-54,Arbovirus anti repeat=-3
COc1cc(C(=O)Nc2cccc(-c3nc4ncccc4o3)c2C)cc(OC)c1OC,2.8,-2,-8,-1%,-27,
COc1nc(N(C)C)nc(N(C)c2cc(Cl)cc(Cl)c2)n1,10,.,47,.,.,
O=C(NCc1ccncc1)Nc1cccc(Cl)c1,0.0,-6,-5,2%,-17,
CCOC(=O)C1=C(COC(=O)CCOc2cccc(C)c2)NC(=O)NC1C (centres undefined),0.1,.,-6,.,.,
COc1cc(/C=N/NC(N)=S)cc(Br)c1OCc1ccccc1F,6.1,-23,64,74%,-32,
CC(C)C(NC(=O)OCc1ccccc1)C(=O)OCC(=O)N1CCCCC1 (centres undefined),-2.9,2,-6,0%,-40,
Cc1cc(C(=O)CN2C(=O)c3ccccc3C2=O)c(C)n1Cc1cccs1,-2.2,-2,-6,1%,-17,
COc1ccc2oc(C(=O)N(C)Cc3ccc4c(c3)OCCO4)c(C)c2c1,6.1,.,20,.,.,
Cc1cc(C)cc(N(CCC#N)C(=O)CSc2nc3nc(C)cc(C)n3n2)c1,3.5,2,-5,1%,-31,
CC(C)(C)OC(=O)NCc1nc(N)n[nH]1,-3.3,9,0,-6%,-55,
O=[N+]([O-])c1ccccc1S(=O)(=O)Nc1cccnc1,-0.8,.,-5,.,.,
CCOC(=O)/C(C#N)=C/c1cccc(C)c1,-3.7,.,5,-4%,.,
Cc1cc(-c2n[nH]c(=S)n2/N=C/C(Cl)=C/c2ccccc2)n[nH]1,1.9,-5,43,8%,-18,
CCOC(=O)C1CCN(S(=O)(=O)c2c(C)[nH]c(C)c2C(=O)N2CCCCC2)CC1,-1.9,.,9,.,.,
C[C@@H]1CN(Cc2nc(Cc3ccccc3F)no2)C[C@H](C)O1,-3.3,2,-2,3%,.,
O=C(Nc1ccc(NC(=O)c2ccco2)nc1)c1ccco1,-3.1,2,1,1%,.,
COC(=O)c1ccccc1NC(=O)c1ccc(NC(=O)C2CCCO2)cc1 (centres undefined),-4.2,.,16,.,.,
COc1ccc(CCn2c(O)c(C=NCCCN(C)C)c(=O)[nH]c2=O)cc1OC,1.1,-5,10,8%,6,
O=S(=O)(NC1CCCC1)c1ccc(S(=O)(=O)NC2CCCC2)cc1,-0.2,7,-2,-10%,-30,
O=S(=O)(Nc1ccc2oc(-c3ccccc3)nc2c1)c1ccccc1,11,-22,34,5%,-39,
CC(=O)NCCCc1c[nH]c2ccc(Cl)cc12,2.9,-4,-1,2%,-33,
O=C1C2C3CC(C(Br)C3Br)C2C(=O)N1c1nccs1 (centres undefined),1.1,.,-5,.,.,
CSc1nc(C)cc(/C=C\c2ccccc2)c1C#N,-0.7,-1,12,8%,-30,
C=C1C(C(=O)N2CCN(C)CC2)C1C(=O)N1CCN(C)CC1 (centres undefined),-0.1,-4,10,1%,-42,
COc1ccc(-n2ccnc2CN2CCCC(CO)(Cc3cccc(OC)c3)C2)cc1 (centres undefined),0.8,9,33,7%,.,
COC(=O)C1CC(=O)N(Cc2ccccc2)C1 (centres undefined),-2.3,-1,1,-2%,.,
Cc1ccc(C(=O)Nc2ccc(Cl)cn2)cc1S(=O)(=O)N1CCOCC1,1.6,3,-5,8%,27,Arbovirus anti repeat=-1
CC(C)CN(C(=O)COC(=O)CNC(=O)c1ccccc1F)C1CCS(=O)(=O)C1 (centres undefined),-0.2,14,5,-14%,.,
CCOC(=O)C1=C(O)/C(=C/c2cn(CC(=O)NCC3CCCO3)c3ccccc23)SC1=Nc1ccc(C)cc1 (centres undefined),.,.,12,-4%,-20,
O=C(NC1=NCCS1)c1sc2cc(Cl)cc(Cl)c2c1Cl,-2.5,4,80,12%,-20,
OCCCn1c(C(CO)Nc2nc(-c3ccc(Cl)cc3)cs2)nc2ccccc21 (centres undefined),9.0,.,72,4%,.,
COCCNC(=O)C1CC2Cn3c(nc4cc(Cl)c(Cl)cc43)C2N1C (centres undefined),-3.2,.,-2,-4%,.,
O=C(CSc1nnc(-c2cccnc2)n1CCN1CCCCC1)Nc1cccc(Cl)c1,-1.0,8,-2,-7%,-22,
COc1cc(OC)cc(C(=O)NCC2CCCN(C(=O)c3csc(C(C)C)n3)C2)c1 (centres undefined),-0.2,.,-1,.,.,
CCOC(=O)Cc1csc(SCc2nc3ccccc3c(=O)[nH]2)n1,0.5,-2,-8,-9%,-11,
Cc1[nH]n(-c2ccccc2)c(=O)c1C1(C(F)(F)F)C(=O)N(c2ccccc2)C2=C1C(=O)CC(C)(C)C2 (centres undefined),1.9,6,-8,-3%,0,
O=C(O)CN1C(=O)/C(=C2\C(=O)N(Cc3ccccc3Cl)c3ccccc32)SC1=S,12,.,-5,.,.,
CCOc1cc(C#N)c(NC(=O)c2cccnc2)cc1OCC,-2.9,-19,-3,-9%,-21,
Nc1ccc(C(=O)OCc2nc3ccccc3s2)cc1,3.6,2,-2,-3%,.,
Cc1cccc(/C=N/NC(=O)c2cc(Br)ccc2OCc2ccccc2)n1,1.5,.,-2,.,.,
COc1ccc(-c2ccc(C#N)c(OC(=O)c3c(Cl)cccc3Cl)n2)cc1,-0.1,-14,-12,-1%,9,
COc1cccc(CN2C[C@]34C=C[C@@H](C[C@@H]3S2(=O)=O)O4)c1,-5.2,.,3,-6%,.,
CCOC(=O)C(C)Oc1cccc2c(=O)n(CC(=O)N3CCc4ccccc43)ccc12 (centres undefined),4.2,-11,3,6%,-21,
O=C(NC1(C(=O)NC2CCCC2)CCCCC1)c1ccc2c(c1)OCO2,1.7,1,-1,-2%,-19,
CCCCc1cc(=O)oc2c(C)c(OCC(=O)NCc3ccccn3)ccc12,-6.5,.,-2,.,.,
CC(OC(=O)Cc1ccc(F)cc1)C(=O)NCc1ccc2c(c1)OCO2 (centres undefined),1.6,.,-2,.,.,
COCCn1c(Br)nc2c1c(=O)n(C)c(=O)n2C,-0.1,3,-3,2%,.,
O=C(CSc1nc2cc(C(=O)O)ccc2c(=O)n1-c1ccc(F)cc1)Nc1ccc(F)c(F)c1F,-0.3,.,0,.,.,
CC1=NOC(=O)/C1=C\c1ccc(-c2ccc(Br)cc2)o1,4.4,-22,.,?,.,
N#Cc1ccc(Oc2ncccn2)cc1,-2.2,.,-15,.,.,
CC(=O)C1=C(O)C(=O)N(Cc2cccnc2)C1c1ccccc1Cl (centres undefined),-1.7,6,-15,-7%,-27,
CCN(Cc1ccccc1)C(=O)CCc1nc(-c2ccc(C)cc2)no1,4.3,0,-2,7%,14,
CCOc1ccc(-c2ccc(C=O)o2)c([N+](=O)[O-])c1,-1.4,-4,5,8%,-27,
Cc1ccc(C(=O)CSc2nc(C(C)C)nc3ccccc23)cc1,8.3,-9,4,-1%,.,
COc1ccc(NC(=O)COC(=O)CCCc2c[nH]c3ccccc23)cc1OC,-1.9,7,4,-1%,-118,
O=C1COc2ccc(C(=O)c3ccccc3C(=O)NCc3ccco3)cc2N1,0.9,8,-3,5%,2,
COc1ccc(S(=O)(=O)Nc2ccccc2C(=O)N2CCOCC2)cc1Cl,-2.7,.,4,.,.,
CSc1nsc(SCC(=O)Nc2ccc(F)cc2)n1,6.6,.,100,.,.,
OCC1(CCc2ccccc2)CCN(Cc2ccc3nsnc3c2)CC1,0.4,-13,0,1%,.,
CCCCCNC(=O)C(=O)C1C(=O)Nc2ccccc21 (centres undefined),-0.8,.,-1,-5%,.,
Cc1nc(-c2coc3cc(OCC(=O)O)ccc3c2=O)cs1,-2.9,-4,0,-10%,-36,
Cc1cc(-c2nnc(SCC(=O)Nc3nc(-c4ccccc4)cs3)o2)no1,-0.6,.,-5,-1%,.,
# Later entries:
SMILES,RecA splice inh,Arbovirus anti,Mtb betalactam,Mtb growth,YopH PTP inh,others
COc1ccc(NC(C)C(=O)Nc2ccc(C#N)cc2)cc1Cl (centres undefined),0.3,16,100,-11%,-9,
CC(=O)c1cccc(NC(=O)NC(C)c2ccc3c(c2)OCO3)c1 (centres undefined),-2.0,.,2,.,.,
O=C(c1ccc(-c2ccccc2)cc1)N1CCN(c2ccccn2)CC1,3.2,-10,-2,5%,.,
Cc1ccc(SCC(=O)NNC(=O)C2CCCCC2)cc1,-0.8,1,-7,0%,-4,
Cc1cc(C)cc(NC(=S)NC2CC3CCCC(C2)N3C2CCCC2)c1 (centres undefined),0.4,3,0,0%,.,
S=C(Nc1ccc2cn[nH]c2c1)Nc1ccc(Cl)cc1Cl,14,12,0,-6%,.,
CCCCn1c(Cc2ccccc2)nnc1SCC(=O)Nc1cc(C)on1,1.0,6,3,-2%,-5,
CCOc1ccc(S(=O)(=O)Nc2ccc(C(=O)N3CC(C)OC(C)C3)cc2)cc1 (centres undefined),-0.4,.,-5,.,.,
O=C(O)CSCC(=O)N1CCN(S(=O)(=O)c2cc(Cl)cc(Cl)c2)CC1,0.2,.,-4,-8%,.,
COc1ccc(OC)c(NC(=O)CCS(=O)(=O)c2cc3c(cc2C)NC(=O)CO3)c1,1.2,.,-9,.,.,
CCc1cccc(NC(=O)C2CCN(S(=O)(=O)c3c(C)noc3C)CC2)c1,1.5,11,0,-3%,.,
COc1cccc2cc(C(=O)N(Cc3cccs3)CC3CCCO3)c(=O)oc12 (centres undefined),-1.8,-3,1,-4%,.,
COc1ccc(Cn2c(=O)[nH]c3cc(C(=O)N4CCN(c5ccccc5OC)CC4)ccc3c2=O)cc1,-0.6,.,69,.,.,
Cc1ccc(Cl)cc1N(Cc1ccc(C(=O)NCc2cccnc2)cc1)S(=O)(=O)c1ccccc1,-1.9,-25,?,.,-44,
